High-throughput results (PubChem)
HIV Env fusion: inhibitors of HIV-1 Env-driven cell-cell fusion, primary screen, HeLa-JRFL effector, CEM21 target cells, luciferase | inhibition, % at 12.3 µM | 360,000 tested, 1.1% active;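 active = mean replicate inhibition score of at least 50 and every replicate individually at or above 50; inconclusive = only one of the two criteria met; inactive = mean below 50 and not all replicates reaching 50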;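 also: 0% = plate neutral controls and 100% = maraviroc near 300 nM; one replicate is shown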
Rce1 inh: yeast Rce1p protease inhibitors, primary screen, biochemical, fluorescence, cell-free homogeneous. CAAX prenyl protease 2 (Saccharomyces cerevisiae (strain ATCC 204508 / S288c)), Q03530. yeast membranes, quenched prenylated peptide cleavage fluorescence. calls only. 290,000 tested, 0.27% active. AID 2563, 2010;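 active = fall in fluorescence gain of 50% or more versus controls, with final raw signal at or below 3038400; inconclusive = same 50% fall but final raw signal above 3038400; inactive = fall in fluorescence gain under 50%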;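 also: plate controls were neutral control wells for no effect and wells lacking membranes for full effect; tested at 10 µM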
Target sequence (Q03530 whole entry, looked up): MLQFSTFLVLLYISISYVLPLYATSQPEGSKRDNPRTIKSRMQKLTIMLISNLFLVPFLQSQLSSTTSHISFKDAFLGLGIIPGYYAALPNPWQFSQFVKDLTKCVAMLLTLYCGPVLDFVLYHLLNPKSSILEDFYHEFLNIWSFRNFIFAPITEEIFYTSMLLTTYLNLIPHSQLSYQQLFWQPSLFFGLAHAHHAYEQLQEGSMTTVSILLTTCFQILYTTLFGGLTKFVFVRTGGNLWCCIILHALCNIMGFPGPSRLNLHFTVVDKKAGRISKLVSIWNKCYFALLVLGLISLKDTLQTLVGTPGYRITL
eIF4H inh: human eIF4H binding inhibitors, primary screen, translation initiation inhibitor project, biochemical, uHTS, fluorescence polarization. eIF4H fluorescence polarization binding assay. AID 2012, 2009. 290,000 tested, 0.94% active. inhibition, % at 35 µM;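 active = 50% or more with normal probe brightness, or confirmed in later tests; inconclusive = above 50% with abnormal brightness, or retests that disagree; inactive = below 50% or failed in later tests; about a fifth of its hits are not listed in these tables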;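 also: calls also rest on retests at 20 µM and on dose response follow-up; 0% = protein and probe with vehicle and 100% = probe without protein; strong numbers were not always called active; many hits fall short of the cut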
PABP FP inh: PABP poly(A) RNA binding inhibitors, primary screen, biochemical, fluorescence polarization, uHTS; Polyadenylate-binding protein 1 (Homo sapiens), P11940; inhibition, % at 35 µM; 290,000 tested, 1% active;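 active = 50% or more with normal probe brightness, or confirmed in later tests; inconclusive = above 50% with abnormal brightness, or retests that disagree; inactive = below 50% or failed in later tests; about a fifth of its hits are not listed in these tables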;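 also: calls also rest on retests at 20 µM and on dose response follow-up; controls were probe without protein and protein plus probe with vehicle; some compounds called inactive have numbers as strong as hits; many hits fall short of the cut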
CSC inhib: cancer stem cell viability inhibitors, primary screen, luminescence; cancer stem cell-like cells viability; inhibition, % at 7.5 µM; 300,000 tested, 1.1% active; AID 2717, 2010;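 active = mean at 75% or more and at least half the replicates too; inconclusive = mean and replicates disagree; tested in HMLE shEcad cells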;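 also: 0% = median of negative and 100% = median of positive control wells; the first replicate is given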
Yeast UUG start: modulators of yeast start codon fidelity, primary screen, whole organism, S. cerevisiae, single point, plate reader; activity score, % at 18.7 µM; S. cerevisiae UUG-firefly luciferase reporter, luminescence/redox ratio; 350,000 tested, 0.13% active;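 active = replicate mean at a twofold rise or more, about +100% in these data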;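 also: firefly luciferase made from a UUG start codon reports start codon fidelity; reporter light over untreated wells divided by growth signal over untreated wells; some hits fall short of that in this replicate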
MT1-MMP act inh: blockers of MT1-MMP proenzyme processing, primary screen, HT1080 RFP-PRO-GFP cells, GFP/RFP fluorescence; Matrix metalloproteinase-14 (Homo sapiens), P50281; GFP/RFP ratio fluorescence, overnight; percent of plate control window, DMSO zero; GFP/RFP ratio change, % at 20 µM; 360,000 tested, 0.061% active; AID 651647, 2012;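 active = GFP/RFP ratio change of at least 30% with cell ATP level not reduced by more than half and red fluorescence within 50% of control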; also: strong numbers were not always called active
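Assay system: HT1080 RFP-PRO-GFP cells | Dosing: 20 µM single dose, 1% DMSO | Incubation: Cells overnight before dosing, compound overnight, 37 °C, 5% CO2 | Evaluation: GFP/RFP fluorescence ratio | Control set: DMSO-only wells and HT1080 RFP-L50D-GFP cell wells as references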
eIF4H inh retest: recorded beside eIF4H inh, whose call it bears; inhibition, %; compound at 20 µM; confirmation average;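 mean of two retest wells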
PABP FP inh retest: second read-out of PABP FP inh, no call of its own (marks repeat the call); inhibition, %; compound at 20 µM; confirmation repeats;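 mean of two retest wells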
MT1-MMP act inh RFP: second read-out of MT1-MMP act inh, no call of its own (marks repeat the call); RFP signal change, %; measured here: RFP expression control read;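 0 = vehicle wells; hits needed this value within 50% of zero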
Starred values were filed as active, the others as inactive; i = inactive; ? = inconclusive; . = not tested or not shown; + = active, no number.

SMILES	HIV Env fusion	Rce1 inh	eIF4H inh	PABP FP inh	CSC inhib	Yeast UUG start	MT1-MMP act inh	MT1-MMP act inh RFP	others
O=C(NCCCN1CCOCC1)/C(=C/c1cccs1)NC(=O)c1ccccc1	17	i	-1	-15	3	-15	-1	2
COC(=O)c1sccc1NC(=O)CSc1nnnn1-c1ccccc1C	30	+	-10	-7	39	-12	0	-6
O=C(N/N=C/c1cccs1)c1cc(-c2ccncc2)nc2ccccc12	.	i	0	-13	41	.	6	-15
O=C(CN1CC[n+]2c(-c3cccs3)csc21)c1ccc(Br)cc1	-16	i	-6	2	-16	1	-5	-1
CCCC[C@H](CC(=O)c1ccccc1)[C@@H](OC(C)=O)C(=O)Oc1c(C(C)C)cccc1C(C)C	38	.	.	.	19	-10	-12	-17
CN1CCN(S(=O)(=O)c2ccc(NC(=O)C(C)(C)C)cc2)CC1	.	i	0	3	-16	-19	-3	5
COc1cccc(NC(=O)Cn2nnc(-c3ccccc3N)n2)c1	?	i	-10	3	-12	-1	-2	2
COc1cc(CN2CCNC(=O)C2CC(=O)NCCCC2CCCC2)cc(OC)c1 (stereo unspecified)	22	i	4	13	.	-10	-7	-1
O=C(NCc1ccccc1)c1ccc(OC2CSC2)cc1	2	i	5	6	-4	-20	1	-1
COc1ccc(-c2nc(CS(=O)CC(=O)N3CCCC3)c(C)o2)cc1 (stereo unspecified)	11	i	-7	-5	-23	-26	0	4
CCc1cc2c(=O)c(-c3ccc4c(c3)OCCO4)coc2cc1OC(=O)c1ccco1	i	i	0	1	38	-8	1	4
O=C(NNC(=S)NC1CCCCC1)c1ccc2c(c1)OCO2	-15	i	8	12	-5	1	1	-1

Grouped by structure: those above containing an aryl methoxy group (3)
SMILES	HIV Env fusion	Rce1 inh	eIF4H inh	PABP FP inh	CSC inhib	Yeast UUG start	MT1-MMP act inh	MT1-MMP act inh RFP	others
COc1cccc(NC(=O)Cn2nnc(-c3ccccc3N)n2)c1	?	i	-10	3	-12	-1	-2	2
COc1cc(CN2CCNC(=O)C2CC(=O)NCCCC2CCCC2)cc(OC)c1 (stereo unspecified)	22	i	4	13	.	-10	-7	-1
COc1ccc(-c2nc(CS(=O)CC(=O)N3CCCC3)c(C)o2)cc1 (stereo unspecified)	11	i	-7	-5	-23	-26	0	4

Continued.
SMILES	HIV Env fusion	Rce1 inh	eIF4H inh	PABP FP inh	CSC inhib	Yeast UUG start	MT1-MMP act inh	MT1-MMP act inh RFP	others
COCCNC(=O)[C@H](CSCc1ccccc1)N1Cc2ccccc2C1=O	4	i	-4	6	-3	12	-5	-7
CCOC(=O)C1=C(CN2CCN(CCC#N)CC2)NC(=O)NC1c1ccc2c(c1)OCO2 (stereo unspecified)	-30	i	-4	-3	-14	.	2	6
CCOC(=O)CSC1=Nc2ccccc2C2=NC(CC(=O)NCc3ccccc3)C(=O)N12 (stereo unspecified)	-57	i	4	9	-8	4	-4	-7
Cc1cc(S(=O)(=O)NCC(C)C)ccc1OCC(=O)N1CCOCC1	.	i	-11	7	-13	-4	11	5
COc1cccc(-c2cc3nc(NCc4ccccc4OC)n(C)c(=O)c3s2)c1	3	.	.	.	.	-20	-1	0
Clc1nc(Nc2ccccc2)nc(Nc2ccccc2)n1	-93	i	0	7	16	-10	8	-2
Cc1nc2nc(-c3ccccc3)nn2c(C)c1Cl	.	i	.	.	-3	.	-2	0
CC(C)(C)n1nc(C2CC2)cc1NC(=O)Nc1ccc(Cl)cc1	-3	i	-1	12	9	-19	5	-1
Cc1csc(SCCn2c(N3CCCC3)nc3c2c(=O)[nH]c(=O)n3C)n1	.	i	-5	-1	-3	-13	1	5
CCOC(=O)CNC(=O)Cn1cnc2c(nnn2-c2ccc(OC)cc2)c1=O	10	i	6	5	-10	-3	1	0
COc1ccc([C@H]2C[C@@H](O)[C@H](n3cc(COC(=O)c4ccccc4)nn3)CN2Cc2cccs2)cc1	4	.	.	.	.	-3	2	2
O=C(Cn1cnc2ccccc21)N/N=C/c1cccs1	-22	i	20	5	-15	.	4	1
CCn1cc(CN2CCCC(C(=O)Nc3cccc(-n4cccn4)c3)C2)c(C)n1 (stereo unspecified)	13	i	4	-3	-8	0	-2	1
CSc1sc(-c2nnc(SCC(=O)Nc3ccc(Cl)cc3)n2C)c2c1C=CCC2	13	i	2	11	12	0	-6	-6
C/C(=N\NC1=N[C@H]2CS(=O)(=O)C[C@H]2S1)c1ccccc1	-2	.	2	3	-11	-12	-2	6
Cc1cc(C)c(C)c(S(=O)(=O)NCC(=O)Nc2ccccc2F)c1C	10	i	-2	14	.	-3	0	-2
CCN1CCN(C(=O)Nc2cc(Cl)ccc2OC)CC1	-8	i	2	-3	.	.	.	.
Cc1ccc(S(=O)(=O)N2C(=O)CCC2C(=O)O/N=C(\N)c2ccccc2)cc1 (stereo unspecified)	3	i	-6	-7	15	19	-1	1
CN(C)c1cccc(C(=O)OC(C(=O)Nc2ccc(Cl)cc2C(F)(F)F)c2ccccc2)c1 (stereo unspecified)	-16	i	6	0	2	-7	-5	-2
Cc1ccc(C)c(Cn2c(=O)n(CCC(=O)NCc3ccco3)c(=O)c3ccccc32)c1	.	i	6	-2	-14	6	0	-1
O=C(c1ccc(Cl)c(Cl)c1)N1CCOCC1	.	i	-9	3	1	-8	-1	-1
NC(=O)c1ccc(NCCc2ccccc2)c([N+](=O)[O-])c1	-107	i	1	23	-9	-12	3	0
O=C(CSc1ccc(Cl)cc1)Nc1ncccn1	-2	i	6	3	6	-11	-3	1
CN(C)S(=O)(=O)c1ccc(NC(=O)N2CCN(c3cccc(C(F)(F)F)c3)CC2)cc1	?	i	3	0	-4	-3	0	-15
CC(=O)c1cc2c(cc1NC(=O)CSc1nnc(C3CC3)n1C)OCO2	-7	.	.	.	.	5	4	6
Cc1ccc(-n2nc(-c3cccnc3)cc2C(=O)N2CCOCC2)c(C)c1	.	i	-2	14	-18	-8	-4	8
Cc1cc(C)cc(OC(=O)CS(=O)c2ccc(C(F)(F)F)cc2[N+](=O)[O-])c1 (stereo unspecified)	-151	i	2	0	39	-12	1	1
C=COC(=O)c1sc2nc(C)cc(C)c2c1N	-64	i	-1	4	6	.	-4	-2
COc1ccc(C2CC(c3ccccc3)Nc3ncnn32)cc1 (stereo unspecified)	-4	i	-8	-1	.	-18	2	5
COc1cc(CNCc2ccc(OC)cc2OC)cc(OC)c1	3	i	7	13	-8	-30	2	1
Cc1ccc(C(=O)N/C(=C\c2ccccc2)C(=O)NCCN2CCOCC2)cc1	8	i	-12	6	-4	.	0	0
CCOC(=O)C1CCN(S(=O)(=O)c2ccc(-c3nc4ccccc4s3)s2)CC1	.	i	-2	-10	-10	.	.	.
COc1ccc(NC(=O)N2CCN(c3ccc([N+](=O)[O-])cc3)CC2)cc1OC	13	i	3	-5	-6	.	3	-4
CN(C)c1ccc(CNC(=O)c2cc(S(=O)(=O)N3CCCC3)cn2C)cc1	-41	i	-4	6	-5	-19	5	0
COc1ccccc1NC(=O)c1ccc2c(c1)nnn2C	-16	i	-4	2	2	-17	5	4
Cc1ccc(-c2nc(-c3cccnc3)no2)c(C)c1	i	i	-5	-2	-6	.	3	-2
COc1ccc2nc(N=NC3=C(O)CC(C)(C)CC3=O)sc2c1	8	i	7	-4	.	.	13	-4
CCOc1ccc(NC(=S)Nc2cc(C)[nH]n2)cc1	-14	i	4	-12	-7	.	-5	-6
Cc1cc(=O)oc2ccc(OCC(=O)N3CCc4ccccc43)cc12	.	i	-6	-5	.	-6	1	2
COc1ccc(NC(=S)N(CCc2ccc(OC)c(OC)c2)Cc2ccccn2)cc1	2	i	-5	-12	-13	-4	1	-1
COc1cc(/C=C/C(=O)c2ccc(C)cc2)ccc1OCC#N	.	i	5	-12	42	.	1	-18
CCN(CC)C(=O)C(C)OC(=O)COc1ccc(Cl)cc1Cl (stereo unspecified)	-14	i	0	-12	-9	-1	-3	0
COc1cc(OC)c(NC(=O)c2ccco2)cc1Cl	-162	i	4	5	-10	3	0	0
Cc1cc(-c2cccc(Br)c2)c(C#N)c(N)n1	-23	i	0	?	-3	.	-1	3
COc1ccc(CCn2c(C)c(C(C)=O)c3cc(OC(=O)c4ccco4)ccc32)cc1OC	.	i	1	4	-10	7	-4	-8
N=C1c2ccccc2CN1NC(=O)CC12CC3CC(CC(C3)C1)C2	18	i	1	-2	-9	.	2	3
CCN1CCN(C(=O)c2cn(CCOC)c(=O)c3c2c2ccccc2n3C)CC1	-43	i	-8	2	-10	.	8	4
COc1ccc(Cl)c(NC(=O)Cn2nnc(-c3ccccc3N)n2)c1	4	i	0	-1	24	-1	8	-1
CCOc1ccc(S(=O)(=O)N2CCN(C(=S)NCc3ccco3)CC2)cc1	.	i	3	3	-7	-16	0	-3
O=C(CN1C(=O)S/C(=C\c2ccc(O)c([N+](=O)[O-])c2)C1=O)Nc1ccc(N2CCOCC2)cc1	.	i	0	9	16	-1	13	-8
Nc1cc(C(=O)O)ccc1Nc1ccc(F)c(F)c1	.	.	65*	35*	.	-31	4	3	eIF4H inh retest=93*;PABP FP inh retest=97*
CCCCCOc1ccc(C(=O)N(Cc2ccco2)C2CCS(=O)(=O)C2)cc1 (stereo unspecified)	.	i	1	0	.	14	3	-5
CC(C)c1ccc(S(=O)(=O)N2CCN(C(C)C(=O)N3CCCC3)CC2)cc1 (stereo unspecified)	.	.	.	.	-12	-8	-5	0
FC(F)Oc1ccc(-c2c[n+]3c(n2-c2ccccc2)CCCCC3)cc1	-3	i	-8	-4	-8	.	-1	-13
CC(=O)N1N=C2/C(=C/c3ccccc3)CCCC2C1c1ccccc1 (stereo unspecified)	5	i	5	8	-7	.	-8	-8
O=C(Nc1oc2ccc(Cl)cc2c(=O)c1-c1ccc(F)cc1)c1ccco1	4	i	.	.	6	1	-3	0
O=C(c1cccc(COc2ccc(Cl)cc2Cl)c1)N1CCN(c2ccccn2)CC1	.	i	-12	4	9	-7	-6	-8
Cc1ccc(C(=O)c2nc(C(=O)NCCO)nc3ccccc23)cc1	6	.	.	.	5	1	3	7
COc1ccc(N(C(=O)c2snc(C(N)=O)c2N)C(C(=O)NC2CCCC2)c2ccc(F)cc2)c(OC)c1 (stereo unspecified)	12	i	9	0	11	-14	-8	-1
O=C(NCCN1CCOCC1)c1ccc(CSc2nc3ccncc3n2Cc2ccc(F)cc2)cc1	-3	i	-7	1	-5	.	-3	0
Cn1c(NCC(O)c2ccccc2)nc2c1c(=O)n(Cc1ccc(Cl)cc1)c(=O)n2C (stereo unspecified)	.	i	-10	-4	4	8	2	-1
O=C(CC12CC3CC(CC(C3)C1)C2)Nc1nncs1	36	i	-3	-10	3	-8	-5	-3

In the list so far, these have an NH in an aromatic ring:
SMILES	HIV Env fusion	Rce1 inh	eIF4H inh	PABP FP inh	CSC inhib	Yeast UUG start	MT1-MMP act inh	MT1-MMP act inh RFP	others
Cc1csc(SCCn2c(N3CCCC3)nc3c2c(=O)[nH]c(=O)n3C)n1	.	i	-5	-1	-3	-13	1	5
CCOc1ccc(NC(=S)Nc2cc(C)[nH]n2)cc1	-14	i	4	-12	-7	.	-5	-6
